Source: PubChem BioAssay (several laboratories)
RN4220 kill – kills Staphylococcus aureus RN4220. S. aureus RN4220 growth, OD600, 16 h. inhibition, % (no concentration beside the values). actives 0.33% (n = 330,000);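 active means z-score of -3 or lower and OD600 up to 0.18 on both plates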;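 further: plate controls were untreated cells for no effect and reference antibiotic for full effect; stock transfer was 100 nL into about 80 µL; one replicate is shown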
Mtb hypoxia inh – Mtb hypoxia fluorescent reporter inhibition. actives 0.1% (n = 300,000). fluorescence inhibition, % (test concentration not listed). M. tuberculosis hypoxia-regulated fluorescent reporter, fluorescence;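 active means 35 to 45% if threefold the growth effect, above 45% if 1.5-fold the growth effect; inactive means the rest, general growth blockers included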;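 further: wells of about 50 µL received 100 nL stock; 0% = vehicle wells and 100% = reference inhibitor wells; whole bacteria with a GFP reporter of the hypoxia response; strong numbers were not always called active; many hits fall short of the cut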
Autofluor counter – flagged as autofluorescent in microsphere protease counterscreen. actives 3.1% (n = 360,000). AID 624483. fluorescence intensity (concentration not given with the values). compound autofluorescence counterscreen, microsphere flow cytometry; active compounds read high;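 active means at least 3 SD above the mean of all compounds, about 16000 in these data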;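 further: 100 nL of 1 mM stock went into each well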
PrP 5UTR inh – suppresses PrP 5' UTR mRNA reporter expression. cell-based PrP 5' UTR mRNA reporter, plate reader. inhibition, % (concentration not given with the values). actives 0.35% (n = 340,000). AID 488862;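 active means every replicate at 50% or more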;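 further: 0 = median of the neutral control wells; tested in H4 reporter cells; numbers are from one replicate; inactives centre near -14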
BJeLR viability – BJeLR cell viability loss; BJeLR (HRASV12) viability, CellTiter-Glo ATP luminescence, 48 h; reference of the scale not given here; inhibition, % (no concentration beside the values); actives 0.17% (n = 300,000); AID 1554;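 active means replicate mean above 50%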;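 further: 50 nL library stock added to about 25 µL; numbers are from one replicate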
Sa ugtP lethal – growth inhibition of S. aureus ugtP deletion strain; S. aureus RN4220 ugtP deletion, OD600 growth, 16 h; some inactives read as strong as hits; growth inhibition, % (concentration not given with the values); actives 0.54% (n = 330,000); AID 1259309;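 active means z-score under -3 and OD600 up to 0.15 on both plates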;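 further: plate controls were untreated wells for no effect and antibiotic for full effect; wells of about 80 µL received 100 nL stock; the first replicate is given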
Mtb hypoxia inh growth – second read-out of Mtb hypoxia inh, no call of its own (marks repeat the call); growth inhibition, %; measured here: M. tuberculosis growth (absorbance);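 0% = vehicle and 100% = reference antibiotic; read after six days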
* = called active by the depositor.

`COC(=O)NN=Cc1ccc(-c2ccccc2Cl)o1` gave RN4220 kill 5.0, Mtb hypoxia inh -6, Sa ugtP lethal -6 and Mtb hypoxia inh growth 5.
For O=C1NC[C@@H](Cc2cccc3ccccc23)N(CCc2cc(C(F)(F)F)cc(C(F)(F)F)c2)C1=O the results were Autofluor counter 4444, PrP 5UTR inh -11 and BJeLR viability 6.
`COc1ccc(Nc2nc(NN)nc(C)c2[N+](=O)[O-])cc1` gave RN4220 kill 9.4, Mtb hypoxia inh 3, Autofluor counter 3076, PrP 5UTR inh -71, BJeLR viability -5, Sa ugtP lethal 19 and Mtb hypoxia inh growth 7.
CSc1nc(C)cc(-n2cc(F)c(=O)[nH]c2=O)n1 was read as RN4220 kill 6.4, Mtb hypoxia inh 10, Autofluor counter 2536, PrP 5UTR inh -2, BJeLR viability -5, Sa ugtP lethal -6 and Mtb hypoxia inh growth 4.
Screening O=c1c2c3c(sc2n2c(=S)[nH]nc2n1-c1ccccc1)CCC3 returned RN4220 kill 4.1, Mtb hypoxia inh 2, Autofluor counter 3884, PrP 5UTR inh -11, BJeLR viability 8, Sa ugtP lethal 1 and Mtb hypoxia inh growth -4.
COc1cc(C=Nn2cnnc2)ccc1OCc1ccc(C)cc1 was read as RN4220 kill 2.4, Mtb hypoxia inh 7, Sa ugtP lethal -19 and Mtb hypoxia inh growth 5.
For COc1cccc(/C=N/NC(=O)c2cnccn2)c1OC the results were Autofluor counter 4275, PrP 5UTR inh -26 and BJeLR viability -10.
Screening COc1ccc(OC)c(Nc2ncnc3sc(-c4ccccc4)cc23)c1 returned RN4220 kill -7.5, Mtb hypoxia inh -8, Autofluor counter 2434, PrP 5UTR inh 3, BJeLR viability -6, Sa ugtP lethal -23 and Mtb hypoxia inh growth -3.
For COc1ccc(NC(=O)CCSc2ccc(C)cc2)cc1S(=O)(=O)Nc1ccccc1Cl the results were RN4220 kill 1.1, Mtb hypoxia inh 14, Autofluor counter 2012, PrP 5UTR inh -89, BJeLR viability 1, Sa ugtP lethal -7 and Mtb hypoxia inh growth 4.
Screening CCO[C@H]1OC(C(=O)NCc2nc3ccccc3[nH]2)=C[C@@H](c2ccc(Br)cc2)[C@@H]1CCCO returned Autofluor counter 3731, PrP 5UTR inh -17 and BJeLR viability 8.
COc1ccc2c(=O)c(-c3nc(C)cs3)coc2c1 was read as RN4220 kill 5.0, Autofluor counter 2371, PrP 5UTR inh -23, BJeLR viability 9 and Sa ugtP lethal 10.
Screening O=C(N/N=C\c1ccc(F)cc1)c1csnn1 returned Autofluor counter 2800, PrP 5UTR inh -17 and BJeLR viability -5.
For Cc1nn(C)c(Cl)c1S(=O)(=O)N1CCC(CO)(CCc2ccccc2)CC1 the results were RN4220 kill 1.6, Mtb hypoxia inh 0, Autofluor counter 4949, PrP 5UTR inh -13, BJeLR viability 4, Sa ugtP lethal 9 and Mtb hypoxia inh growth -1.
For CCCCCN(C(=O)CN(C)Cc1ccc(OC)cc1OC)c1c(N)n(CCCC)c(=O)[nH]c1=O the results were RN4220 kill 9.3, Mtb hypoxia inh -6, Autofluor counter 3403, PrP 5UTR inh -18, BJeLR viability 14, Sa ugtP lethal 0 and Mtb hypoxia inh growth -3.
Screening O=C(O)c1ccccc1-c1ccccc1C(=O)Nc1cccc(O)c1 returned RN4220 kill 6.2, Autofluor counter 4632, PrP 5UTR inh -19, BJeLR viability 5 and Sa ugtP lethal -1.
Screening COc1ccc(C(=O)NNC(=O)C(=O)/C=C(\O)c2ccc(C)cc2)cc1 returned RN4220 kill 4.4, Mtb hypoxia inh 4, Autofluor counter 2920, PrP 5UTR inh -20, BJeLR viability 0, Sa ugtP lethal 3 and Mtb hypoxia inh growth -3.
Screening O=C(Nc1ccccc1C(=O)N1CCCCC1)c1ccc(Cl)cc1Cl returned RN4220 kill 0.5, Mtb hypoxia inh 7, Autofluor counter 3624, PrP 5UTR inh -1, BJeLR viability -1, Sa ugtP lethal 1 and Mtb hypoxia inh growth 11.
`Clc1ccc(-c2ccccc2)cn1` gave RN4220 kill 15, Mtb hypoxia inh 7, Autofluor counter 4227, PrP 5UTR inh -20, Sa ugtP lethal 13 and Mtb hypoxia inh growth -1.
`Nn1c(SCC(=O)NCc2ccc3c(c2)OCO3)nnc1C(F)(F)F` gave RN4220 kill 2.5, Mtb hypoxia inh 8, Autofluor counter 3732, PrP 5UTR inh -10, Sa ugtP lethal 1 and Mtb hypoxia inh growth 3.
CC(CCc1ccccc1)=NNC(=O)C(=O)NC(C)c1ccccc1 (stereo not given) was read as RN4220 kill 0.5, Mtb hypoxia inh -5, Sa ugtP lethal -12 and Mtb hypoxia inh growth 5.

In the list so far, these have a CF3 group:
For O=C1NC[C@@H](Cc2cccc3ccccc23)N(CCc2cc(C(F)(F)F)cc(C(F)(F)F)c2)C1=O the results were Autofluor counter 4444, PrP 5UTR inh -11 and BJeLR viability 6.
`Nn1c(SCC(=O)NCc2ccc3c(c2)OCO3)nnc1C(F)(F)F` gave RN4220 kill 2.5, Mtb hypoxia inh 8, Autofluor counter 3732, PrP 5UTR inh -10, Sa ugtP lethal 1 and Mtb hypoxia inh growth 3.

The main list resumes; the 2 compounds before the break are reprinted first.
`Nn1c(SCC(=O)NCc2ccc3c(c2)OCO3)nnc1C(F)(F)F` gave RN4220 kill 2.5, Mtb hypoxia inh 8, Autofluor counter 3732, PrP 5UTR inh -10, Sa ugtP lethal 1 and Mtb hypoxia inh growth 3.
CC(CCc1ccccc1)=NNC(=O)C(=O)NC(C)c1ccccc1 (stereo not given) was read as RN4220 kill 0.5, Mtb hypoxia inh -5, Sa ugtP lethal -12 and Mtb hypoxia inh growth 5.
CC(NC(=O)NC(=O)c1cccc(Cl)c1)c1ccccc1 (stereo not given) was read as RN4220 kill 1.2, Mtb hypoxia inh 2, Autofluor counter 4699, PrP 5UTR inh -11, BJeLR viability -2, Sa ugtP lethal -15 and Mtb hypoxia inh growth -3.
Screening O=C(NCC(=O)N1CCN(C(=O)c2ccco2)CC1)c1ccccc1 returned RN4220 kill 2.0, Mtb hypoxia inh -7, Autofluor counter 6039, PrP 5UTR inh -21, BJeLR viability 7, Sa ugtP lethal 4 and Mtb hypoxia inh growth -10.
`COC(=O)CSc1cc([N+](=O)[O-])cc2c1c(C1OCCO1)nn2-c1ccccc1` gave RN4220 kill 3.4, Mtb hypoxia inh 6, Autofluor counter 2588, PrP 5UTR inh 2, BJeLR viability 1, Sa ugtP lethal 2 and Mtb hypoxia inh growth 7.
N#Cc1ccc(OCC(=O)N/N=C/C2CC=CCC2)cc1 (stereo not given) was read as Autofluor counter 4036, PrP 5UTR inh 25 and BJeLR viability 0.
Cc1ccc(C(=O)N[C@H](C(=O)OCC(=O)c2ccc[nH]2)C(C)C)cc1 was read as RN4220 kill 3.2, Mtb hypoxia inh 2, Autofluor counter 2383, PrP 5UTR inh -7, BJeLR viability 5, Sa ugtP lethal 4 and Mtb hypoxia inh growth 1.
For COc1ccccc1Nc1nc(NCC2CCCO2)c2ccccc2n1 (stereo not given) the results were RN4220 kill 3.8, Mtb hypoxia inh -13, Autofluor counter 4997, PrP 5UTR inh -19, BJeLR viability -4, Sa ugtP lethal -9 and Mtb hypoxia inh growth 13.
C=CCn1c(=S)[nH]c2cc(C(=O)Nc3ccc(F)cc3)ccc2c1=O was read as RN4220 kill 1.2, Mtb hypoxia inh 0, Autofluor counter 7178, PrP 5UTR inh -25, BJeLR viability 3, Sa ugtP lethal -8 and Mtb hypoxia inh growth -1.
COc1ccc(N2CCN(c3oc(COc4ccccc4)nc3C#N)CC2)cc1 was read as RN4220 kill 9.5, Mtb hypoxia inh 14, Autofluor counter 4902, PrP 5UTR inh -14, Sa ugtP lethal 0 and Mtb hypoxia inh growth 10.
Nc1nsc2ccccc12 was read as RN4220 kill -4.0, Mtb hypoxia inh 4, Autofluor counter 10832, PrP 5UTR inh 8, BJeLR viability 2, Sa ugtP lethal 15 and Mtb hypoxia inh growth 1.
Screening CCOc1ncccc1C(=O)Nc1ccc(S(=O)(=O)Nc2cc(C)nc(C)n2)cc1 returned RN4220 kill 5.1, Mtb hypoxia inh 8, Autofluor counter 3433, PrP 5UTR inh -10, Sa ugtP lethal 10 and Mtb hypoxia inh growth 6.
`COc1ccc(C)cc1-n1c(SCC(=O)Nc2cc(C)on2)nc2sc(C)c(C)c2c1=O` gave RN4220 kill 2.8, Autofluor counter 4382, PrP 5UTR inh -20, BJeLR viability -1 and Sa ugtP lethal 4.
Screening Cc1ccc(S(=O)(=O)NCC(=O)OCC(=O)NCc2ccco2)cc1 returned RN4220 kill 1.4, Mtb hypoxia inh 7, Autofluor counter 3586, PrP 5UTR inh -13, Sa ugtP lethal 1 and Mtb hypoxia inh growth 9.
For CC1CCCCC1NC(=O)C1CCN(c2c3c(nc4ncnn24)CCC3)CC1 (stereo not given) the results were RN4220 kill -13, Mtb hypoxia inh 4, Autofluor counter 3455, PrP 5UTR inh -21, BJeLR viability 17, Sa ugtP lethal 6 and Mtb hypoxia inh growth 6.
CC(/C=N/N1CCN(c2ccccn2)CC1)=C\c1ccccc1 was read as Autofluor counter 8410, PrP 5UTR inh -76 and BJeLR viability 5.
Screening O=C(O)Cc1ccc(NC(=O)c2ccc(Cl)c(Cl)c2)cc1 returned RN4220 kill 7.6, Mtb hypoxia inh 10, Autofluor counter 2598, PrP 5UTR inh -20, BJeLR viability -2, Sa ugtP lethal 8 and Mtb hypoxia inh growth 1.
`Cc1cc(C)cc(NC(=O)c2ccccc2CC[N+](=O)[O-])c1` gave RN4220 kill 1.9, Autofluor counter 2758, PrP 5UTR inh -16, BJeLR viability 0 and Sa ugtP lethal 4.
Screening O=c1[nH]c(CSc2ncnc3sccc23)nc2cc(C(F)(F)F)ccc12 returned RN4220 kill 4.4, Mtb hypoxia inh 1, Autofluor counter 4340, PrP 5UTR inh 5, BJeLR viability 8, Sa ugtP lethal 2 and Mtb hypoxia inh growth 2.
`CC1(C)Cc2c(cnn2-c2ccccc2)C(=O)C1=NNC(=O)c1ccccc1O` gave RN4220 kill 3.3, Mtb hypoxia inh -7, Sa ugtP lethal 5 and Mtb hypoxia inh growth 12.
For COCc1ccc(CN2CCc3c([nH]c4ccccc34)C2C(C)(C)C)o1 (stereo not given) the results were RN4220 kill 13, Mtb hypoxia inh 9, Autofluor counter 3321, PrP 5UTR inh 5, BJeLR viability 4, Sa ugtP lethal -7 and Mtb hypoxia inh growth -4.
O=C(CSCc1ccccc1F)NCc1ccccc1 was read as RN4220 kill 8.0, Mtb hypoxia inh 11, Autofluor counter 4191, PrP 5UTR inh -10, BJeLR viability 0, Sa ugtP lethal 3 and Mtb hypoxia inh growth 8.
O=c1cc[nH]c2c1ccc1c(=O)cc[nH]c12 was read as RN4220 kill 0.7, Mtb hypoxia inh -4, Autofluor counter 3920, PrP 5UTR inh -13, BJeLR viability 8, Sa ugtP lethal 2 and Mtb hypoxia inh growth -10.
CCN(CC)C(=O)c1sc2nc(Cc3ccccc3)[nH]c(=O)c2c1C was read as RN4220 kill 3.0, Mtb hypoxia inh 10, Autofluor counter 2101, PrP 5UTR inh -13, BJeLR viability 11, Sa ugtP lethal -11 and Mtb hypoxia inh growth 1.
`CCCCCN(C(=O)CCC(=O)OCC(=O)NCc1ccc(OC)cc1)c1c(N)n(CCCC)c(=O)[nH]c1=O` gave RN4220 kill -1.2, Mtb hypoxia inh 12, Autofluor counter 6939, PrP 5UTR inh -27, BJeLR viability -5, Sa ugtP lethal 3 and Mtb hypoxia inh growth -6.
Cc1ccc([N+](=O)[O-])cc1C=NNc1nnnn1-c1ccccc1 was read as RN4220 kill 6.6, Mtb hypoxia inh 10, Sa ugtP lethal -3 and Mtb hypoxia inh growth 5.
Screening Cn1c(C(=O)NCCc2ccccc2)cc(=O)n(C)c1=O returned RN4220 kill 3.5, Mtb hypoxia inh -6, Autofluor counter 4260, PrP 5UTR inh -28, BJeLR viability 4, Sa ugtP lethal 2 and Mtb hypoxia inh growth 16.
For COC(=O)C1CCN(C(=O)c2cc(OC)c(OC)c(OC)c2)CC1 the results were RN4220 kill 0.7, Mtb hypoxia inh -2, Autofluor counter 9470, PrP 5UTR inh -8, BJeLR viability 0, Sa ugtP lethal 0 and Mtb hypoxia inh growth 5.
CN(C)Cc1c(C(=O)NN=Cc2cccc(OCc3ccc(F)cc3)c2)nnn1-c1nonc1N was read as RN4220 kill 7.0, Mtb hypoxia inh 8, Sa ugtP lethal 7 and Mtb hypoxia inh growth 0.
